Screening data: PubChem, Broad Institute
ID4 SMM – binders of human ID4 protein, primary screen, biochemical, small molecule microarray, single point | DNA-binding protein inhibitor ID-4 (Homo sapiens), P47928 | Flag-ID4 binding, fluorescence F/B | calls only | hit rate 1.2% among 31,000;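 active means spot signal over background at p below 0.07 in all four prints; compounds were printed on slides so no solution concentration is given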;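 further: a binder raises fluorescence above local background on the spot; about 2 pmol printed per array spot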
Target sequence (P47928 whole entry, looked up): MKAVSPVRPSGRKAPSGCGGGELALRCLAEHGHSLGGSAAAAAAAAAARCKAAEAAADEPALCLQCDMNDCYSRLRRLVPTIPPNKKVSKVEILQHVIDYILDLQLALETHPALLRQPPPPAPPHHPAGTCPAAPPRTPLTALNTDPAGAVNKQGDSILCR
p53 mut binder – binders of human mutant p53, primary screen, biochemical, small molecule microarray, anti-GST fluorescence; calls only; small molecule microarray binding; mutant tumor protein p53 (GST-tagged), Homo sapiens; AID 624136, 2012; hit rate 0.4% among 17,000;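 active means compounds whose four printed spots each glow above background more than chance allows, each with a p-value under 7%; compounds were printed on slides so no solution concentration is given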;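 further: about 2 pmol printed per array spot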
c-Myc SMM – binders of human c-Myc, primary screen, biochemical, small molecule microarray, anti-His fluorescence | His-c-Myc binding | calls only | AID 624141, 2012 | hit rate 1.5% among 17,000;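 active means spot fluorescence over background with P-value below 7% in all four replicate spots, showing protein binding; compounds were printed on slides so no solution concentration is given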;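 further: score is binary with 100 for all four spots passing and 0 otherwise; about 2 pmol printed per array spot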
Target sequence (P01106 whole entry, looked up): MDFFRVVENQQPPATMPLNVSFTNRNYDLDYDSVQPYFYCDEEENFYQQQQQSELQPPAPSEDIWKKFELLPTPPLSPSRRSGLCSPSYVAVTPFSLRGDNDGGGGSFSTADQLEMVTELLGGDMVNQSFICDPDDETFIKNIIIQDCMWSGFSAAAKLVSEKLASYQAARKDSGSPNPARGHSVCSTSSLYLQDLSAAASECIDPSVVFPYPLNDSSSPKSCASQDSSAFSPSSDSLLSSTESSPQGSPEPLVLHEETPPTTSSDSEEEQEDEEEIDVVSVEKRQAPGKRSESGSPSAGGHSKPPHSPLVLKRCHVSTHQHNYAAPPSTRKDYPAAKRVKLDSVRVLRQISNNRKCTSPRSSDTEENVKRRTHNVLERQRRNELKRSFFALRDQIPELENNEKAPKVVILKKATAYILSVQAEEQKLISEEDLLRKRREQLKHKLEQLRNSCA
STAT3 SMM – STAT3 binders, primary screen, biochemical, small molecule microarray, single point, set 2 | hit rate 0.2% among 17,000 | His-STAT3 binding, anti-His fluorescence | Signal transducer and activator of transcription 3 (Homo sapiens), P40763 | calls only;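 active means compounds whose four printed spots each show fluorescence over background unusually high for their array block, chance value under 7%; compounds were printed on slides so no solution concentration is given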;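 further: about 2 pmol printed per array spot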
Calls only.

Results for COc1ccc(S(=O)(=O)N(C)C[C@@H]2Oc3ccc(NS(C)(=O)=O)cc3CC(=O)N([C@@H](C)CO)C[C@@H]2C)cc1 ?
ID4 SMM: inactive; p53 mut binder: inactive; c-Myc SMM: inactive; STAT3 SMM: inactive

What do the screens show for `C[C@H](CO)N1C[C@H](C)[C@@H](CN(C)S(=O)(=O)c2ccc(Oc3ccccc3)nc2)OCc2cn(nn2)CCCC1=O`?
ID4 SMM: inactive; p53 mut binder: inactive; c-Myc SMM: inactive; STAT3 SMM: inactive

What do the screens show for `O=C(C1=C[C@H](c2ccc(C(F)(F)F)cc2)C[C@H](OCCCCO)O1)N1CCCCCCC1`?
ID4 SMM: inactive; p53 mut binder: inactive; c-Myc SMM: inactive; STAT3 SMM: inactive

What do the screens show for `COc1ccc(S(=O)(=O)N(C)C[C@H]2Oc3ccc(NC(=O)Nc4ccc5c(c4)OCO5)cc3C(=O)N([C@@H](C)CO)C[C@H]2C)cc1`?
ID4 SMM: inactive; p53 mut binder: inactive; c-Myc SMM: inactive; STAT3 SMM: inactive

What do the screens show for `O=C(Nc1ccccc1)C1=C[C@H](c2ccc(C(F)(F)F)cc2)C[C@H](OCCCCO)O1`?
p53 mut binder: inactive; c-Myc SMM: inactive; STAT3 SMM: inactive

What do the screens show for `COC(=O)c1c(CC[C@@H](CO)NC(=O)Nc2ncn[nH]2)oc(C(=O)Cc2ccccc2)c1C(=O)OC`?
p53 mut binder: inactive; c-Myc SMM: inactive; STAT3 SMM: inactive

How did C[C@@H]1CN([C@H](C)CO)C(=O)c2cccc(NC(=O)c3ccc(-c4nccs4)cc3)c2O[C@H]1CN(C)S(=O)(=O)c1cn(C)cn1 do in these assays?
ID4 SMM: inactive; p53 mut binder: inactive; c-Myc SMM: inactive; STAT3 SMM: inactive

Results for COc1ccc(CN(C)C[C@H]2OCCCC[C@H](C)Oc3ccc(NS(=O)(=O)c4ccc(Cl)cc4)cc3C(=O)N([C@H](C)CO)C[C@H]2C)cc1 ?
p53 mut binder: inactive; c-Myc SMM: inactive; STAT3 SMM: inactive

Results for C[C@@H]1CCCCO[C@@H](CN(C)Cc2ccccc2)[C@H](C)CN([C@H](C)CO)C(=O)c2cc(NS(C)(=O)=O)ccc2O1 ?
ID4 SMM: inactive; p53 mut binder: inactive; c-Myc SMM: inactive; STAT3 SMM: inactive

Results for Cc1cc(-c2cccs2)c(C#N)c(SCC(=O)Nc2cccc(F)c2)n1 ?
ID4 SMM: inactive; p53 mut binder: inactive; c-Myc SMM: inactive; STAT3 SMM: inactive

What do the screens show for `C[C@H](CO)N1C[C@H](C)[C@H](CN(C)C(=O)NC2CCCCC2)Oc2ccc(NC(=O)Cc3cn(C)c4ccccc34)cc2CC1=O`?
ID4 SMM: inactive; p53 mut binder: inactive; c-Myc SMM: inactive; STAT3 SMM: inactive

What do the screens show for `Cc1noc(C)c1NC(=O)N(C)C[C@H]1Oc2ccc(NC(=O)CCN3CCOCC3)cc2CC(=O)N([C@H](C)CO)C[C@H]1C`?
ID4 SMM: inactive; p53 mut binder: inactive; c-Myc SMM: inactive; STAT3 SMM: inactive

What do the screens show for `C[C@@H]1CN([C@@H](C)CO)C(=O)c2cc(NS(=O)(=O)c3cccs3)ccc2O[C@@H](C)CCCCO[C@@H]1CN(C)C(=O)CCCN(C)C`?
ID4 SMM: inactive; p53 mut binder: inactive; c-Myc SMM: inactive; STAT3 SMM: inactive

How did C[C@H](CO)N1C[C@H](C)[C@H](CN(C)S(=O)(=O)c2cccs2)OCc2cn(nn2)CCCC1=O do in these assays?
ID4 SMM: inactive; p53 mut binder: inactive; c-Myc SMM: inactive; STAT3 SMM: inactive

Results for O=C(NCc1nc2ccccc2[nH]1)C1=C[C@@H](C2CC2)C[C@@H](OCc2ccc(CO)cc2)O1 ?
ID4 SMM: inactive; p53 mut binder: inactive; c-Myc SMM: inactive; STAT3 SMM: inactive

What do the screens show for `C[C@@H]1CN([C@H](C)CO)C(=O)c2cc(NS(C)(=O)=O)ccc2O[C@@H](C)CCCCO[C@@H]1CN(C)Cc1ccccc1`?
ID4 SMM: inactive; p53 mut binder: inactive; c-Myc SMM: inactive; STAT3 SMM: inactive

How did CN1CCN(C(=O)C2=C[C@H](c3ccccc3)C[C@H](OCCCCO)O2)CC1 do in these assays?
p53 mut binder: inactive; c-Myc SMM: inactive; STAT3 SMM: inactive

What do the screens show for `COC(=O)[C@@H](N)CSC/C=C(\C)CC/C=C(\C)CCC=C(C)C`?
ID4 SMM: inactive; p53 mut binder: inactive; c-Myc SMM: inactive; STAT3 SMM: inactive

What do the screens show for `O=C(NC1CC1)[C@@H]1c2ccccc2C(=O)N(CC23CC4CC(CC(C4)C2)C3)[C@H]1c1ccc(CO)cc1`?
p53 mut binder: inactive; c-Myc SMM: inactive; STAT3 SMM: inactive

How did C=CC[C@@H](OC(=O)Nc1ccc(SC)cc1)c1ccc(OCCO)cc1 do in these assays?
ID4 SMM: inactive; p53 mut binder: inactive; c-Myc SMM: inactive; STAT3 SMM: inactive

How did Cc1noc(C)c1NC(=O)Nc1ccc2c(c1)CC(=O)N([C@@H](C)CO)C[C@@H](C)[C@H](CN(C)C)O2 do in these assays?
ID4 SMM: inactive; p53 mut binder: inactive; c-Myc SMM: inactive; STAT3 SMM: inactive

How did Oc1ccc([C@H]2Oc3cc(O)cc(O)c3C[C@H]2O)cc1 do in these assays?
ID4 SMM: inactive; p53 mut binder: inactive; c-Myc SMM: inactive; STAT3 SMM: inactive

How did Cc1ccc(O)c(NC(=O)c2nc3ncccn3n2)c1 do in these assays?
ID4 SMM: inactive; p53 mut binder: inactive; c-Myc SMM: inactive; STAT3 SMM: inactive

What do the screens show for `Cc1noc(C)c1S(=O)(=O)Nc1ccc2c(c1)C(=O)N([C@H](C)CO)C[C@@H](C)[C@@H](CN(C)S(=O)(=O)c1ccccc1)OCCCC[C@H](C)O2`?
p53 mut binder: inactive; c-Myc SMM: inactive; STAT3 SMM: inactive

Results for CC(C)NC(=O)N(C)C[C@@H]1Oc2ccc(NC(=O)C3CC3)cc2CC(=O)N([C@H](C)CO)C[C@H]1C ?
ID4 SMM: inactive; p53 mut binder: inactive; c-Myc SMM: inactive; STAT3 SMM: inactive

What do the screens show for `C[C@@H]1CN([C@@H](C)CO)C(=O)c2cc(NC(=O)CCCN(C)C)ccc2O[C@H]1CN(C)C(=O)Nc1ccc2c(c1)OCO2`?
ID4 SMM: inactive; p53 mut binder: inactive; c-Myc SMM: inactive; STAT3 SMM: inactive

Results for N=C(N)c1ccc(N2CCN(C3CCN(CC(=O)O)CC3)CC2)cc1 ?
ID4 SMM: inactive; p53 mut binder: inactive; c-Myc SMM: inactive; STAT3 SMM: inactive

Results for OC(COc1ccccc1Cl)Cn1nnc2ccccc21 (configuration not stated) ?
ID4 SMM: inactive; p53 mut binder: inactive; c-Myc SMM: inactive; STAT3 SMM: inactive

Results for CN(CCc1ccccn1)S(=O)(=O)c1ccc2c3c(cccc13)C(=O)N2 ?
ID4 SMM: inactive; p53 mut binder: inactive; c-Myc SMM: inactive; STAT3 SMM: inactive

How did C[C@H](CO)N1C[C@H](C)[C@H](CN(C)C(=O)NC2CCCCC2)Oc2c(NC(=O)c3ccc(-c4nccs4)cc3)cccc2C1=O do in these assays?
ID4 SMM: inactive; p53 mut binder: inactive; c-Myc SMM: inactive; STAT3 SMM: inactive

Reprinted from the part before: 2 entries; new compounds follow.
Results for CN(CCc1ccccn1)S(=O)(=O)c1ccc2c3c(cccc13)C(=O)N2 ?
ID4 SMM: inactive; p53 mut binder: inactive; c-Myc SMM: inactive; STAT3 SMM: inactive

How did C[C@H](CO)N1C[C@H](C)[C@H](CN(C)C(=O)NC2CCCCC2)Oc2c(NC(=O)c3ccc(-c4nccs4)cc3)cccc2C1=O do in these assays?
ID4 SMM: inactive; p53 mut binder: inactive; c-Myc SMM: inactive; STAT3 SMM: inactive

Results for COc1ccc(CN(C)C[C@H]2Oc3ccc(NC(=O)Nc4ccc(F)cc4)cc3C(=O)N([C@H](C)CO)C[C@H]2C)cc1 ?
ID4 SMM: inactive; p53 mut binder: inactive; c-Myc SMM: inactive; STAT3 SMM: inactive

What do the screens show for `COc1ccc(S(=O)(=O)N2CCN(Cc3ccc(OCCO)cc3)CC2)cc1`?
ID4 SMM: active; p53 mut binder: inactive; c-Myc SMM: inactive; STAT3 SMM: inactive

Results for C[C@H](CO)N1C[C@H](C)[C@H](CN(C)S(=O)(=O)c2cccs2)Oc2ccc(NC(=O)Nc3cccc4ccccc34)cc2C1=O ?
p53 mut binder: inactive; c-Myc SMM: inactive; STAT3 SMM: inactive

Results for C[C@@H]1CN([C@@H](C)CO)C(=O)c2cccc(NS(=O)(=O)c3ccccc3)c2O[C@@H]1CN(C)C(=O)Nc1cccc2ccccc12 ?
ID4 SMM: inactive; p53 mut binder: inactive; c-Myc SMM: inactive; STAT3 SMM: inactive

What do the screens show for `COc1ccc(S(=O)(=O)Nc2ccc3c(c2)C(=O)N([C@@H](C)CO)C[C@H](C)[C@H](CN(C)S(=O)(=O)c2cccs2)O3)cc1`?
ID4 SMM: inactive; p53 mut binder: inactive; c-Myc SMM: inactive; STAT3 SMM: inactive

What do the screens show for `CC(C)CC(NS(=O)(=O)c1cccc2nsnc12)C(=O)O` (configuration not stated)?
ID4 SMM: inactive; p53 mut binder: inactive; c-Myc SMM: active; STAT3 SMM: inactive

How did C[C@H]1CN([C@@H](C)CO)C(=O)c2cccc(NC(=O)NC3CCCCC3)c2O[C@@H]1CN(C)C(=O)Nc1cccc2ccccc12 do in these assays?
ID4 SMM: inactive; p53 mut binder: inactive; c-Myc SMM: inactive; STAT3 SMM: inactive

How did COc1ccc(S(=O)(=O)N(C)C[C@@H]2Oc3c(NC(=O)Nc4cccc5ccccc45)cccc3C(=O)N([C@@H](C)CO)C[C@@H]2C)cc1 do in these assays?
ID4 SMM: inactive; p53 mut binder: inactive; c-Myc SMM: inactive; STAT3 SMM: inactive

Results for O=C(O)C(Cc1ccccc1)N1C(=O)c2ccccc2C1=O (configuration not stated) ?
ID4 SMM: inactive; p53 mut binder: inactive; c-Myc SMM: inactive; STAT3 SMM: inactive

What do the screens show for `O=[N+]([O-])c1ccc(S(=O)(=O)NCCN2CCOCC2)cc1`?
ID4 SMM: inactive; p53 mut binder: inactive; c-Myc SMM: inactive; STAT3 SMM: inactive

Compounds shown so far with a Cl atom:
Results for COc1ccc(CN(C)C[C@H]2OCCCC[C@H](C)Oc3ccc(NS(=O)(=O)c4ccc(Cl)cc4)cc3C(=O)N([C@H](C)CO)C[C@H]2C)cc1 ?
p53 mut binder: inactive; c-Myc SMM: inactive; STAT3 SMM: inactive

Results for OC(COc1ccccc1Cl)Cn1nnc2ccccc21 (configuration not stated) ?
ID4 SMM: inactive; p53 mut binder: inactive; c-Myc SMM: inactive; STAT3 SMM: inactive

(more compounds)
What do the screens show for `Cc1cc(C)c2c(=O)[nH]c(SCC(=O)N3CCOCC3)nc2n1`?
ID4 SMM: active; p53 mut binder: inactive; c-Myc SMM: inactive; STAT3 SMM: inactive

How did C[C@@H]1CCCCO[C@H](CN(C)C(=O)Nc2ccccc2)[C@H](C)CN([C@@H](C)CO)C(=O)c2cc(NS(C)(=O)=O)ccc2O1 do in these assays?
ID4 SMM: inactive; p53 mut binder: inactive; c-Myc SMM: inactive; STAT3 SMM: inactive

Results for COc1cc(O)cc(C)c1C(=O)OC1C(CO)OC(n2ccc(=O)[nH]c2=O)C1OC(C)=O (configuration not stated) ?
ID4 SMM: inactive; p53 mut binder: inactive; c-Myc SMM: inactive; STAT3 SMM: inactive

What do the screens show for `CNC[C@H]1Oc2ccc(NS(=O)(=O)c3ccccc3)cc2C(=O)N([C@H](C)CO)C[C@@H]1C`?
ID4 SMM: inactive; p53 mut binder: inactive; c-Myc SMM: inactive; STAT3 SMM: inactive

What do the screens show for `C[C@@H]1CCCCO[C@H](CN(C)Cc2ccc3c(c2)OCO3)[C@@H](C)CN([C@@H](C)CO)C(=O)c2cc(NS(=O)(=O)c3ccccc3)ccc2O1`?
ID4 SMM: inactive; p53 mut binder: inactive; c-Myc SMM: inactive; STAT3 SMM: inactive

Results for O=C(NCC(O)CO)[C@@]1(CCS(=O)(=O)c2ccccc2)N=C(c2ccc(OCCCO)cc2)O[C@H]1c1ccccc1 (some centres not stated) ?
ID4 SMM: inactive; p53 mut binder: inactive; c-Myc SMM: inactive; STAT3 SMM: inactive

Results for COc1cccc(C(=O)COc2ccc(NC(=O)c3ccccc3C)cc2)c1 ?
ID4 SMM: inactive; p53 mut binder: inactive; c-Myc SMM: inactive; STAT3 SMM: inactive

What do the screens show for `COc1ccc(S(=O)(=O)N(C)C[C@H]2Oc3c(NS(C)(=O)=O)cccc3C(=O)N([C@H](C)CO)C[C@H]2C)cc1`?
ID4 SMM: inactive; p53 mut binder: inactive; c-Myc SMM: inactive; STAT3 SMM: inactive

What do the screens show for `Cc1ccc(S(=O)(=O)Nc2ccc3c(c2)C(=O)N([C@H](C)CO)C[C@@H](C)[C@H](CN(C)C(=O)Cc2ccccc2)OCCCC[C@@H](C)O3)cc1`?
p53 mut binder: inactive; c-Myc SMM: inactive; STAT3 SMM: inactive

How did COc1ccc(S(=O)(=O)N(C)C[C@H]2Oc3ccc(NC(=O)CCC(F)(F)F)cc3C(=O)N([C@@H](C)CO)C[C@@H]2C)cc1 do in these assays?
ID4 SMM: inactive; p53 mut binder: inactive; c-Myc SMM: inactive; STAT3 SMM: inactive

What do the screens show for `CN(C)c1ccc(/C=C2/C(=O)Nc3ccccc32)cc1`?
p53 mut binder: inactive; c-Myc SMM: inactive; STAT3 SMM: inactive
